CSC inhib – cancer stem cell viability inhibitors, primary screen, luminescence | cancer stem cell-like cells viability | inhibition, % at 7.5 µM | actives 1.1% (n = 300,000) | AID 2717, 2010;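 active = mean at 75% or more and at least half the replicates too; tested in HMLE shEcad cells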;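 note: 0% = median of negative and 100% = median of positive control wells; the first replicate is given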
Yeast UUG start – modulators of yeast start codon fidelity, primary screen, whole organism, S. cerevisiae, single point, plate reader. S. cerevisiae UUG-firefly luciferase reporter, luminescence/redox ratio. activity score, % at 18.7 µM. actives 0.13% (n = 350,000). AID 602363, 2012;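 active = replicate mean at a twofold rise or more, about +100% in these data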;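 note: firefly luciferase made from a UUG start codon reports start codon fidelity; reporter light over untreated wells divided by growth signal over untreated wells; some hits fall short of that in this replicate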
eIF4H FP inh – human eIF4H binding inhibitors, primary screen, translation initiation inhibitor project, biochemical, uHTS, fluorescence polarization; eIF4H fluorescence polarization binding assay; AID 2012, 2009; actives 0.94% (n = 290,000); inhibition, % at 35 µM; Eukaryotic translation initiation factor 4H (Homo sapiens), Q15056;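 active = 50% or more with normal probe brightness, or confirmed in later tests; about a fifth of its hits are not listed in these tables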;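 note: calls also rest on retests at 20 µM and on dose response follow-up; 0% = protein and probe with vehicle and 100% = probe without protein; strong numbers were not always called active; many hits fall short of the cut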
Env fusion inh – inhibitors of HIV-1 Env-driven cell-cell fusion, primary screen, HeLa-JRFL effector, CEM21 target cells, luciferase; AID 651610, 2012; actives 1.1% (n = 360,000); inhibition, % at 12.3 µM;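 active = mean replicate inhibition score of at least 50 and every replicate individually at or above 50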;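 note: 0% = plate neutral controls and 100% = maraviroc near 300 nM; one replicate is shown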
MT1-MMP act inh – blockers of MT1-MMP proenzyme processing, primary screen, HT1080 RFP-PRO-GFP cells, GFP/RFP fluorescence; GFP/RFP ratio fluorescence, overnight; percent of plate control window, DMSO zero; actives 0.061% (n = 360,000); GFP/RFP ratio change, % at 20 µM; AID 651647, 2012;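 active = GFP/RFP ratio change of at least 30% with cell ATP level not reduced by more than half and red fluorescence within 50% of control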; note: strong numbers were not always called active
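Compound: 20 µM single dose, 1% DMSO / System: HT1080 RFP-PRO-GFP cells / Controls: DMSO and RFP-L50D-GFP cell wells / Read-out basis: GFP/RFP fluorescence ratio / Schedule: overnight compound exposure at 37 °C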
PABP polyA inh – PABP poly(A) RNA binding inhibitors, primary screen, biochemical, fluorescence polarization, uHTS. Polyadenylate-binding protein 1 (Homo sapiens), P11940. inhibition, % at 35 µM. actives 1% (n = 290,000). AID 2014, 2009;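 active = 50% or more with normal probe brightness, or confirmed in later tests; about a fifth of its hits are not listed in these tables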;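 note: calls also rest on retests at 20 µM and on dose response follow-up; controls were probe without protein and protein plus probe with vehicle; some compounds called inactive have numbers as strong as hits; many hits fall short of the cut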
Rce1 inh – yeast Rce1p protease inhibitors, primary screen, biochemical, fluorescence, cell-free homogeneous; actives 0.27% (n = 290,000); calls only; CAAX prenyl protease 2 (Saccharomyces cerevisiae (strain ATCC 204508 / S288c)), Q03530; yeast membranes, quenched prenylated peptide cleavage fluorescence; AID 2563, 2010;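 active = fall in fluorescence gain of 50% or more versus controls, with final raw signal at or below 3038400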;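 note: plate controls were neutral control wells for no effect and wells lacking membranes for full effect; tested at 10 µM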
Target sequence (Q03530 whole entry, looked up): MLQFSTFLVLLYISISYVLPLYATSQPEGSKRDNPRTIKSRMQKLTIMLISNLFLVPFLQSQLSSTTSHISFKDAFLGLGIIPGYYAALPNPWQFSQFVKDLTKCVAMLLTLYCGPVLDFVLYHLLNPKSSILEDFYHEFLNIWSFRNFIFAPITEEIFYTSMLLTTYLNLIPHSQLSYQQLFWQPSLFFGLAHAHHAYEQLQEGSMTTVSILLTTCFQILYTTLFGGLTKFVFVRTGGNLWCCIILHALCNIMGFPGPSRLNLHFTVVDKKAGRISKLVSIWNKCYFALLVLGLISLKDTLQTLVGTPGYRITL
MT1-MMP act inh RFP – second read-out of MT1-MMP act inh, no call of its own (marks repeat the call); RFP signal change, %; measured here: RFP expression control read;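 0 = vehicle wells; hits needed this value within 50% of zero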
The depositor's hits bear a star.

For CCOC(=O)C1=C(CC)Nc2ccccc2N=C1NC(=O)c1ccc(S(=O)(=O)N2CCCC2)cc1 the results were CSC inhib -12.6, eIF4H FP inh -7.4, Env fusion inh -33.1, MT1-MMP act inh -4.1, PABP polyA inh -15.4, Rce1 inh inactive and MT1-MMP act inh RFP -4.6.
`CCc1nnc(NC(=O)c2ccc(S(=O)(=O)N(CC(C)C)CC(C)C)cc2)o1` gave Yeast UUG start -31.5, eIF4H FP inh 13.5, MT1-MMP act inh -5.0, PABP polyA inh -10.2 and MT1-MMP act inh RFP -5.2.
Screening CC(=O)c1cccc(N2C(=NC(=O)COc3ccccc3)SC3CS(=O)(=O)CC32)c1 (stereo unspecified) returned CSC inhib 0.5, Yeast UUG start -10.3, eIF4H FP inh -9.8, Env fusion inh 11.0, MT1-MMP act inh 0.7, PABP polyA inh -11.2, Rce1 inh inactive and MT1-MMP act inh RFP -0.5.
`COc1ccccc1NC(=O)Nc1cc(C(C)(C)C)nn1C` gave CSC inhib 20.1, eIF4H FP inh -6.4, Env fusion inh 10.7, MT1-MMP act inh 1.5, PABP polyA inh -1.6, Rce1 inh inactive and MT1-MMP act inh RFP 4.1.
Screening Cc1sc(NC(=O)c2ccco2)c(CN2CCN(c3ccc(F)cc3)CC2)c1C returned CSC inhib 36.1, Yeast UUG start -8.5, eIF4H FP inh -16.2, Env fusion inh 35.5, MT1-MMP act inh -9.7, PABP polyA inh 6.4, Rce1 inh inactive and MT1-MMP act inh RFP -15.7.
For COc1cc(O)ccc1C(=O)CCc1ccc(O)cc1 the results were CSC inhib 17.5, Yeast UUG start -13.8, eIF4H FP inh 0.2, Env fusion inh -26.8, MT1-MMP act inh 3.5, PABP polyA inh 1.2, Rce1 inh inactive and MT1-MMP act inh RFP 0.7.
For Cn1cc(-c2cccc(C(F)(F)F)c2)cc(C#N)c1=O the results were CSC inhib -13.3, Yeast UUG start -19.5, eIF4H FP inh -5.4, Env fusion inh -0.9, MT1-MMP act inh 3.9, PABP polyA inh 2.5, Rce1 inh inactive and MT1-MMP act inh RFP 9.7.
For CCc1cccc(C)c1NC(=O)CSc1nnc(C)o1 the results were CSC inhib -0.9, Yeast UUG start -16.8, eIF4H FP inh 4.5, Env fusion inh 4.2, MT1-MMP act inh -0.2, PABP polyA inh -0.5, Rce1 inh inactive and MT1-MMP act inh RFP 0.5.
Screening O=C(Cn1cc(C(=O)C2CC2)c2ccccc21)NCc1ccc2c(c1)OCO2 returned CSC inhib -9.1, Yeast UUG start -12.0, eIF4H FP inh -7.8, Env fusion inh -77.2, MT1-MMP act inh -2.0, PABP polyA inh -3.0, Rce1 inh inactive and MT1-MMP act inh RFP -2.8.
O=C1CCCN1c1ccc(CNS(=O)(=O)c2ccc(F)cc2)cc1 was read as CSC inhib -7.4, Yeast UUG start -20.0, eIF4H FP inh -8.0, MT1-MMP act inh 2.2, PABP polyA inh -4.7, Rce1 inh inactive and MT1-MMP act inh RFP -0.2.
For CC(C)(C)OC(=O)N[C@@H](C(=O)OC(C)(C)C)c1ccc(C(F)(F)F)cc1 the results were CSC inhib 5.2, Yeast UUG start -6.3, Env fusion inh -9.5, MT1-MMP act inh -1.7 and MT1-MMP act inh RFP -1.8.
COc1cccc(-c2noc(-c3ccc(Br)o3)n2)c1 was read as CSC inhib 0.6, eIF4H FP inh -0.9, Env fusion inh -113.5, MT1-MMP act inh 6.4, PABP polyA inh 0.4, Rce1 inh inactive and MT1-MMP act inh RFP 0.6.

At a glance, some entries already given:
For CC(C)(C)OC(=O)N[C@@H](C(=O)OC(C)(C)C)c1ccc(C(F)(F)F)cc1 the results were CSC inhib 5.2, Yeast UUG start -6.3, Env fusion inh -9.5, MT1-MMP act inh -1.7 and MT1-MMP act inh RFP -1.8.
COc1cccc(-c2noc(-c3ccc(Br)o3)n2)c1 was read as CSC inhib 0.6, eIF4H FP inh -0.9, Env fusion inh -113.5, MT1-MMP act inh 6.4, PABP polyA inh 0.4, Rce1 inh inactive and MT1-MMP act inh RFP 0.6.

More results.
`Nc1nnc(SCCN2C(=O)c3ccccc3S2(=O)=O)s1` gave CSC inhib -20.5, Yeast UUG start -8.2, eIF4H FP inh -1.8, MT1-MMP act inh 0.5, PABP polyA inh 2.6, Rce1 inh inactive and MT1-MMP act inh RFP 4.0.
For CCCCCCCCCCCCCCCC[n+]1ccc(/C=N/O)cc1 the results were CSC inhib 100.2*, eIF4H FP inh 12.9, Env fusion inh 88.7*, MT1-MMP act inh -38.9, PABP polyA inh 9.5 and MT1-MMP act inh RFP -36.8.
For CC(C)(C)NC(=O)Nc1ccc2nccnc2c1 the results were CSC inhib -15.4, eIF4H FP inh -2.5, MT1-MMP act inh 2.6, PABP polyA inh 14.6, Rce1 inh inactive and MT1-MMP act inh RFP 8.0.
`Cc1onc(-c2ccc(Cl)cc2Cl)c1-c1csc(N/N=C/c2ccccc2)n1` gave eIF4H FP inh -5.9, Env fusion inh 22.9, MT1-MMP act inh -4.5, PABP polyA inh -1.1, Rce1 inh inactive and MT1-MMP act inh RFP -6.7.
Screening COc1ccccc1N1CCN(C(=O)c2cc3c(=O)n(C)c4ccccc4c3n2C)CC1 returned CSC inhib -2.1, Yeast UUG start -8.6, eIF4H FP inh 5.2, Env fusion inh 9.3, MT1-MMP act inh -4.9, PABP polyA inh 13.8, Rce1 inh inactive and MT1-MMP act inh RFP -4.3.
For COc1cccc(C(=O)N2c3ccccc3Sc3ccccc32)c1 the results were CSC inhib 33.2, eIF4H FP inh -4.5, MT1-MMP act inh -13.7, PABP polyA inh -12.1, Rce1 inh inactive and MT1-MMP act inh RFP -25.3.
Screening CC(C)CCn1c(SCC(=O)N2CC(=O)Nc3ccccc32)nc2scc(-c3cccs3)c2c1=O returned CSC inhib -20.0, eIF4H FP inh 13.1, MT1-MMP act inh -15.9, PABP polyA inh -1.3, Rce1 inh inactive and MT1-MMP act inh RFP -7.8.
Screening CCOc1ccc(S(=O)(=O)N2CCC(C(=O)NCC(=O)Nc3cccc(Cl)c3C)CC2)cc1 returned Yeast UUG start -1.5, Env fusion inh 31.3, MT1-MMP act inh -0.8 and MT1-MMP act inh RFP -7.5.
CN(C)/C=N/c1ncnc2c1cnn2-c1ccc(C(F)(F)F)cn1 was read as eIF4H FP inh -3.6, MT1-MMP act inh 5.6, PABP polyA inh 0.1, Rce1 inh inactive and MT1-MMP act inh RFP 4.6.
Screening Fc1ccc(OCCOCCN2CCNCC2)cc1 returned CSC inhib 0.6, Yeast UUG start -8.4, eIF4H FP inh -10.3, Env fusion inh -6.9, MT1-MMP act inh -4.0, PABP polyA inh 1.7, Rce1 inh inactive and MT1-MMP act inh RFP 2.3.
COC(=O)c1ccccc1-n1c(CCC(=O)O)ccc1-c1ccc(F)cc1 was read as CSC inhib 0.6, Yeast UUG start -0.2, eIF4H FP inh 1.6, Env fusion inh 1.2, MT1-MMP act inh -8.0, PABP polyA inh -7.4, Rce1 inh inactive and MT1-MMP act inh RFP 1.1.
For COc1ccccc1/C=C/C(=O)Nc1cccnc1 the results were CSC inhib 10.8, Yeast UUG start 6.7, eIF4H FP inh -1.7, Env fusion inh -75.2, MT1-MMP act inh 7.7, PABP polyA inh -5.2, Rce1 inh inactive and MT1-MMP act inh RFP -11.1.
`C/C(=N\Nc1nc(N2CCOCC2)nc(N2CCOCC2)n1)c1ccc([N+](=O)[O-])cc1` gave CSC inhib 4.3, eIF4H FP inh 5.1, Env fusion inh 7.9, PABP polyA inh 2.3 and Rce1 inh inactive.
Screening O=C(c1sccc1-c1ccccc1)N1CCN(S(=O)(=O)c2ccccc2)CC1 returned CSC inhib 0.6, Yeast UUG start 1.7, eIF4H FP inh -12.2, Env fusion inh 43.2, MT1-MMP act inh -6.1, PABP polyA inh 2.5, Rce1 inh inactive and MT1-MMP act inh RFP -1.3.
`Cc1cc(N2CCOCC2)nc2ccc(NC(=O)C3CCCCC3)cc12` gave Yeast UUG start -11.2, Env fusion inh 16.1, MT1-MMP act inh 9.5 and MT1-MMP act inh RFP 5.6.
For CCN(CC)S(=O)(=O)c1ccc(Oc2ccc(S(=O)(=O)N(CC)CC)cc2)cc1 the results were CSC inhib -0.1, Yeast UUG start -16.9, eIF4H FP inh 0.7, Env fusion inh 61.9*, MT1-MMP act inh 5.1, PABP polyA inh 5.5, Rce1 inh inactive and MT1-MMP act inh RFP -15.7.
`CCOC(=O)c1ccc(NC(=O)C2CCCN(S(=O)(=O)c3cnc[nH]3)C2)cc1` (stereo unspecified) gave CSC inhib -20.1, Yeast UUG start -16.7, eIF4H FP inh -5.8, Env fusion inh -1.7, MT1-MMP act inh -0.8, PABP polyA inh 2.3, Rce1 inh inactive and MT1-MMP act inh RFP 6.3.
For COc1cc(/C=N\NC(=O)c2cccc(Cl)c2)ccc1Oc1ccc([N+](=O)[O-])cn1 the results were CSC inhib 22.8, eIF4H FP inh -5.5, Env fusion inh -26.7, MT1-MMP act inh -0.9, PABP polyA inh -5.3, Rce1 inh inactive and MT1-MMP act inh RFP -12.4.
Cc1ccc2nc(SCC(=O)NCc3ccco3)c(C)cc2c1 was read as CSC inhib 20.1, Yeast UUG start -16.5, eIF4H FP inh -1.6, Env fusion inh 9.1, MT1-MMP act inh -1.6, PABP polyA inh 5.7, Rce1 inh inactive and MT1-MMP act inh RFP -3.4.
For COCCn1c(SCC(=O)Nc2c(C)n(C)n(-c3ccccc3)c2=O)nc2ccccc2c1=O the results were CSC inhib -8.8, Yeast UUG start 8.9, MT1-MMP act inh 3.6 and MT1-MMP act inh RFP 2.4.
`CC1NC(=S)N(Cc2ccccc2)C1=O` (stereo unspecified) gave CSC inhib -2.8, Yeast UUG start -19.2, eIF4H FP inh -1.1, Env fusion inh 13.5, MT1-MMP act inh 4.9, PABP polyA inh 2.4, Rce1 inh inactive and MT1-MMP act inh RFP 6.3.
Screening NC(=O)c1ccc(NC(=O)COC(=O)CCN=C2NS(=O)(=O)c3ccccc32)cc1 returned CSC inhib -3.6, Yeast UUG start -11.5, Env fusion inh 9.9, MT1-MMP act inh -0.3 and MT1-MMP act inh RFP 3.7.
For Cc1ccc(C(=O)c2c(NC(=O)c3ccncc3)sc3c2CCCC3)cc1 the results were Yeast UUG start -18.9, eIF4H FP inh -6.3, Env fusion inh -10.1, MT1-MMP act inh -14.2, PABP polyA inh -2.9, Rce1 inh inactive and MT1-MMP act inh RFP -14.4.
O=c1[nH]nnc2cc(Cl)ccc12 was read as Yeast UUG start -5.7, Env fusion inh 8.8, MT1-MMP act inh 1.6 and MT1-MMP act inh RFP 2.0.
`CCOC(=O)N1CCN(c2cc(=O)n(-c3cccc(C)c3)c(=O)[nH]2)CC1` gave CSC inhib -12.0, eIF4H FP inh 3.9, Env fusion inh -0.5, MT1-MMP act inh -0.8, PABP polyA inh -0.1, Rce1 inh inactive and MT1-MMP act inh RFP -1.1.
Screening COc1ccc(S(=O)(=O)N(Cc2cc3ccc(OC)cc3[nH]c2=O)CC2COCCO2)cc1 (stereo unspecified) returned CSC inhib 34.6, Yeast UUG start 3.6, eIF4H FP inh 2.1, MT1-MMP act inh 1.3, PABP polyA inh 5.9, Rce1 inh inactive and MT1-MMP act inh RFP 0.0.
Screening COc1ccc(Nc2nc(-c3ccc(OC)cc3)cs2)cc1 returned CSC inhib -1.3, eIF4H FP inh 5.1, Env fusion inh -28.5, MT1-MMP act inh 1.2, PABP polyA inh -17.0, Rce1 inh inactive and MT1-MMP act inh RFP 2.9.

High-throughput results: PubChem, several laboratories

Not all compounds are listed; count on the stated rates, not on these rows.
